HIV TAR-Tat: TAR RNA-Tat peptide displacers, HIV-1, primary screen, biochemical, FRET, FAM/TAMRA-labeled Tat | HIV-1 TAR RNA, Tat peptide displacement FRET; hits give high values | z-score (no concentration beside the values) | 0.6% of 100,000 active | AID 1259389, 2018;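 further: score is relative to mean and SD of negative controls; some compounds called inactive have numbers as strong as hits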
CDC25B CDK2 inh: primary biochemical HTRF screen for blockers of M-phase inducer phosphatase 2 binding to CDK2/cyclin A; P30305+P24941; HTRF CDC25B-CDK2/CyclinA binding, anti-His/anti-Flag; hits give high values; z-score (test concentration not listed); 0.72% of 94,000 active; AID 1259370, 2018;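 further: score is relative to mean and SD of negative controls; strong numbers were not always called active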
An asterisk follows results filed as active; · = not tested or not shown.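 How the source made its calls: active means z-score from 3 up in half or more of its runs; inactive means the rest.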

#	Compound	HIV TAR-Tat	CDC25B CDK2 inh
1	Nc1nc(N2CCN(Cc3ccccc3)CC2)nc(Nc2ccccc2F)c1[N+](=O)[O-]	0.62	·
2	COc1ccc(CNc2nc(N3CCOCC3)nc3c2cnn3C)cc1	0.94	·
3	COc1cccc(NC2c3ccccc3C(=O)N2c2ccc(Cl)cn2)c1 (stereo unspecified)	0.89	-0.61
4	Cc1cc(C)cc(NC(=O)C2Sc3nnc(C)n3NC2c2ccc(F)cc2)c1 (stereo unspecified)	2.3	-1.1
5	Cc1ccc(Nc2nc(NC3CCCC3)nc3c2cnn3C)cc1Cl	1.9	·
6	Oc1ccccc1C1=NN2C(C1)c1cc(Cl)ccc1OC2c1cccnc1 (stereo unspecified)	0.01	-0.98
7	C/C(=N\c1nnc(Sc2nc3cc(Cl)ccc3s2)s1)N(C)C	·	-0.65
8	CCOC(=O)c1sc(N2CCCCC2)nc1N	0.61	-0.56
9	CCCCCOC(=O)C1=C(C)Nc2nc3ccccc3n2C1c1ccncc1 (stereo unspecified)	0.51	-0.48
10	Cc1ccccc1-c1nnc(-c2cccs2)o1	0.21	-2
11	O=C(c1cc2ccccc2s1)N1CCN(C(c2ccccc2)c2ccccc2)CC1	·	-0.55
12	Cc1cc(N2CCN(c3ccc(Cl)cc3)CC2)n2ncnc2n1	-7	-0.06
13	COc1cc(/C=C(\C#N)C(=O)Nc2nnc(C(F)(F)F)s2)ccc1OCc1ccc(C(F)(F)F)cc1C(F)(F)F	·	-0.79
14	CCOC(=O)COc1cc2c(C(=O)OCC)c(C)n(CC)c2c2ccccc12	·	-0.24
15	O=C(Cn1c(=O)oc2ccccc21)N1CCc2ccccc21	-0.38	·
16	O=C(O)c1cccc(C(=O)O)c1Br	·	-0.43
17	CCCN1C(=O)C(O)(CC(=O)c2cccnc2)c2cc(Br)ccc21 (stereo unspecified)	0.46	-2
18	Cn1ncc2c(NCCc3c[nH]c4ccccc34)ncnc21	1.4	·
19	COc1ccc(Cl)cc1N(C)C(=O)c1cc2c(s1)-c1ccccc1OC2	0.64	-0.32
20	CCOc1c(Nc2ccc(OC)c(Cl)c2)c(=O)c1=O	1.2	·
21	Cc1nc2nc[nH]n2c(=O)c1NS(=O)(=O)c1ccc2c(c1)CCCC2	0.7	-1.1
22	Cc1cccc(-c2nnc(N)s2)c1	1.3	0.71
23	COc1ccc(OC)c(S(=O)(=O)NCc2nnnn2-c2ccccc2)c1	2	·
24	O=C(O)Cc1cc(I)c(Oc2cc(I)c(O)c(I)c2)c(I)c1	-0.72	·
25	CCCCNC(=O)CCn1nc(-c2ccccc2)ccc1=O	·	-1.8
26	O=C(N/N=C/c1ccccc1)c1ccc2nonc2c1	·	-2.2
27	CC(C)(C)C(=O)Nc1nnc2n1CCCS2	-0.02	·
28	O=S(=O)(Cc1ccccc1)c1nsc(NS(=O)(=O)c2ccc(Cl)cc2)n1	-0.35	-0.57
29	CC(NC(=O)C(C)(C)C)C1CC2CCC1C2 (stereo unspecified)	0.84	-0.19
30	Clc1cccc2nc3n(c12)CCN(Cc1ccco1)C3	0.57	-1.3
31	Cc1cc(C(F)(F)F)c2c(C)nn(-c3ccc(C)c(Cl)c3)c2n1	-0.55	1.8
32	CC1SC2(C(=O)Nc3ccccc32)N(c2ccccc2)C1=O (stereo unspecified)	·	-0.52
33	CC(C)c1ccc(C2C(C#N)=C(N)OC3=C2C(=O)CC(C)(C)C3)cc1 (stereo unspecified)	·	-0.43
34	Cc1ccc(NS(=O)(=O)c2ccc(CN3C(=O)c4cccnc4C3=O)s2)c(Br)c1	0.27	·
35	CC1Cc2cc(S(=O)(=O)CCC(=O)Nc3ccc(Cl)cc3)ccc2N1C(=O)C1CC1 (stereo unspecified)	-0.24	·
36	CS(=O)(=O)Nc1cccc(C2=NN(C(=O)c3ccco3)C(c3ccc(F)cc3)C2)c1 (stereo unspecified)	·	-3
37	O=C(C1Sc2nnc(-c3ccccc3)n2NC1c1ccc(Cl)cc1)N1CCCCC1 (stereo unspecified)	0.82	1.1
38	c1ccc(-c2nc3c4ccccc4nc(NCC4CCCO4)n3n2)cc1 (stereo unspecified)	·	-0.52
39	CN(Cc1ccco1)C(=O)Cn1c(=O)oc2ccccc21	2.4	·
40	Cc1ccc(-c2noc(CCC(=O)N3CCCCC3)n2)cc1	·	-1
41	CCSc1nc(=O)c2c(n1C)NC(=O)CC2c1cccc(F)c1F (stereo unspecified)	0.29	1.5
42	CCOC(=O)CNC(=O)c1nn(C)cc1[N+](=O)[O-]	1.9	-0.24
43	CCc1cc2c3c([nH]c2cc1S(=O)(=O)N1CCc2ccccc21)CCCC3=O	0.16	·
44	NNC(=O)c1cccn1-c1ccc(F)cc1	·	-2.7
45	Cc1ccc(-c2nc3ccccc3c3nnc(SCC(=O)NC(C)(C)C)n23)cc1	0.52	·
46	Cc1nc(SCCCOc2ccccc2)cc(-c2ccccc2)n1	-0.01	-0.71
47	COc1ccc(C2c3c(-c4c(C)cc(C)cc4O)n[nH]c3C(=O)N2CCCOC(C)C)cc1OC (stereo unspecified)	1.4	-0.96
48	Cc1ccc(S(=O)(=O)N2CCN(Cc3nc4ccc(C)cc4o3)CC2)cc1	1.2	·
49	O=C(Cn1ncn2c(cc3cc(F)ccc32)c1=O)NCCC1=CCCCC1	-1.5	-1
50	COc1ccc2[nH]c(CSc3nnc(COc4ccc(C(C)(C)C)cc4)n3C)cc(=O)c2c1	0.08	·
51	O=C1C2ON(c3ccc(Cl)cc3)C(c3ccco3)C2C(=O)N1c1ccccc1 (stereo unspecified)	·	-0.42
52	Cc1ccc(C)c(Cn2c(=O)cc(C)c3c(C)nn(C)c32)c1	1.1	·
53	COc1ccc(CN(c2ccccc2)[P+](c2ccccc2)(c2ccccc2)c2ccccc2)cc1	·	0.7
54	CC12CCC(=O)C=C1CCC1C2CCC2(C)C(C(=O)CO)=CCC12 (stereo unspecified)	3.2	0.72
55	CCOc1ccc(-c2nc3c(c(=O)[nH]2)Cc2cc(C(=O)OC)ccc2O3)cc1	1.9	-0.93
56	CC1CCN(S(=O)(=O)c2ccc3c(c2)c(=O)c(C(=O)NC2CCCCCCC2)cn3C)CC1	·	-0.89
57	CN(C)CCNc1ncnc2c1sc1nc(N3CCOCC3)c3c(c12)CC(C)(C)OC3	·	-2.2
58	Nc1c(C(=O)Nc2ccccc2)sc2nc(N3CCCC3)c3c(c12)CCCC3	0.95	6.1
59	c1ccc(-c2nnn3c2nc(N2CCCC2)c2ccccc23)cc1	1.3	-0.4
60	COc1ccccc1C(=O)CC1(O)C(=O)Nc2ccc(Cl)cc21 (stereo unspecified)	0.42	-0.44

Continued:
#	Compound	HIV TAR-Tat	CDC25B CDK2 inh
61	Cc1ccc2c(=O)c(C(=O)c3ccc(Br)cc3)cn(CC(N)=O)c2n1	0.01	·
62	O=C1CC2(CCN(C(=O)NCc3ccccc3)CC2)Oc2ccccc21	1.3	·
63	O=c1[nH]c(-c2ccc(Cl)cc2)nc2c1Cc1ccccc1O2	3.9	-0.9
64	CN1CCC[C@@H]1CCO[C@](C)(c1ccccc1)c1ccc(Cl)cc1	1	·
65	O=C(CSCc1cc(=O)c2ccccc2[nH]1)Nc1ccc(Cl)cc1	0.66	·
66	COc1ccc(N2CCN(C3CCN(S(=O)(=O)c4ccc(F)cc4)CC3)CC2)cc1	0.9	-1.6
67	COc1cc(C(=O)N/N=C(\N)c2ccccn2)cc(OC)c1OC	·	-0.96
68	CCOC(=O)CN1C(C(=O)c2ccccc2)=C(OC(=O)C(C)C)c2ccccc2S1(=O)=O	-0.61	0.57
69	Cc1ccc(S(=O)(=O)NCCn2nc(-c3ccc(F)cc3)ccc2=O)c(C)c1	1	·
70	O=C1NCCCCC1N1CNC(=S)NC1 (stereo unspecified)	·	-1.4
71	O=C1Nc2cc(C(=O)N3CCCC3)ccc2N2CCCC12 (stereo unspecified)	2.3	·
72	CC(C)(C)C(=O)N1CCN(c2ccc(C(F)(F)F)cn2)CC1	·	-2
73	Cc1nc(N2CCCC2)cc(N2CCN(C(=O)c3ccc(Br)cc3)CC2)n1	-0.05	-0.75
74	COc1ccc(-c2nc(C#N)c(NCc3ccccc3)o2)cc1	1.5	-0.53
75	O=C(O)c1cccc(N2CCCC2=O)c1	3.5	·
76	O=C(CN1C(=O)c2cccnc2Oc2ccccc21)NCCc1c[nH]c2ccccc12	1	·
77	CC1CCCN(c2nn3c(=O)c(C(=O)NCc4ccco4)cnc3s2)C1 (stereo unspecified)	0.23	·
78	COc1ccc(N2C(=O)CC(Sc3nccc(C)n3)C2=O)cc1 (stereo unspecified)	-0.36	-0.52
79	Cn1c(CC(=O)c2ccc(O)cc2O)nc2ccccc21	·	-1.7
80	Cc1ncc(-c2ccc(S(=O)(=O)Nc3ccc(C)c(Cl)c3)cc2)o1	0.83	·
81	CC1CCC(C(C)C)C(OC(=O)Cn2c[n+](C)c3ccccc32)C1 (stereo unspecified)	1.5	0.26
82	Cc1cc(C(=O)NNC(=O)Nc2ccc(C(F)(F)F)cc2)nn1C(C)(C)C	·	-0.86
83	Oc1ccc(-c2[nH]ncc2Oc2ccccc2)c(O)c1	1.1	-1.5
84	CCCCOC(=O)C1=C(C)NC2=C(C(=O)CC(C)(C)C2)C1c1cccc(O)c1 (stereo unspecified)	0.74	-1.1
85	CCOC(=O)C1=C(C)Nc2nc3ccccc3n2C1c1ccccc1Cl (stereo unspecified)	-0.18	-1.3
86	O=C1CSC(c2cccc(Br)c2)N1c1cc(Cl)ccc1O (stereo unspecified)	0.83	·
87	Cc1[nH]nc(-c2ccc(S(=O)(=O)N3CCN(C4CCCCC4)CC3)s2)c1C	-0.1	·
88	Cc1ccc(-n2c(=O)c(C#N)cc3c(=O)n4ccccc4nc32)cc1	-0.81	-1.3
89	COc1ccc(C=C2C(=O)NC(=O)NC2=O)cc1OCc1cccc2ccccc12	·	1.7
90	Cc1sc(NC(=O)c2ccccc2)c(C#N)c1C	·	-1.1
91	CC(=O)Nc1nc2ccc(NC(=O)CSc3nccc(C)n3)cc2s1	1.6	·
92	COCCCNS(=O)(=O)c1ccc2c(c1)NC(=O)CO2	1.6	·
93	COc1ccc(OCCCN2CCCCC2)cc1	1	0.54
94	Cn1c(Cn2c(=O)sc3ccccc32)nnc1SCC(=O)c1ccc(Cl)cc1	1.9	-1.8
95	CN(C)c1ccc(C(CNS(=O)(=O)c2ccc(Br)cc2)N(C)C)cc1 (stereo unspecified)	0.69	·
96	Cc1cc(C)cc(NC(=O)N2CC(C)Oc3ccc(Cl)cc32)c1 (stereo unspecified)	2.2	·
97	CN1C(=O)c2cc(C(=O)N3CCC(C(N)=O)CC3)nn2CC1(C)C(=O)NC1CCCC1 (stereo unspecified)	1.2	·
98	Oc1ccccc1C1=NC(c2ccc(Cl)cc2)NC(c2ccccn2)C1 (stereo unspecified)	0.51	0.17
99	COc1ccc(-c2coc3cc4oc(=O)c5cc(OC)ccc5c4cc23)cc1	1.9	0.18
100	CCCc1cc(C(=O)Nc2c(F)cc(F)cc2Br)no1	0.29	-0.98

From compound 81 to 84, copied from above:
#	Compound	HIV TAR-Tat	CDC25B CDK2 inh
81	CC1CCC(C(C)C)C(OC(=O)Cn2c[n+](C)c3ccccc32)C1 (stereo unspecified)	1.5	0.26
82	Cc1cc(C(=O)NNC(=O)Nc2ccc(C(F)(F)F)cc2)nn1C(C)(C)C	·	-0.86
83	Oc1ccc(-c2[nH]ncc2Oc2ccccc2)c(O)c1	1.1	-1.5
84	CCCCOC(=O)C1=C(C)NC2=C(C(=O)CC(C)(C)C2)C1c1cccc(O)c1 (stereo unspecified)	0.74	-1.1

(continued)
#	Compound	HIV TAR-Tat	CDC25B CDK2 inh
101	CCn1nccc1C1CCCN1C(=O)NCC(=O)OC (stereo unspecified)	1.4	-1
102	CCOc1nc(-c2cccc(OC)c2)ccc1-c1noc(-c2cccnc2)n1	-1.6	0.44
103	CCOC(=O)C1=C(Nc2ccc(OC(F)(F)F)cc2)OCC1=O	·	-0.76
104	Cc1ccc(C(=O)COC(=O)CCCC(=O)Nc2cccc(Cl)c2)cc1[N+](=O)[O-]	·	0.04
105	COc1ccc(OC)c(NC(=O)NC(Cc2ccccc2)Cc2ccc3c(c2)OCO3)c1 (stereo unspecified)	0.56	·
106	Oc1cc(Cc2ccccc2)cnc1CN1CCOCC1	·	0.41
107	COc1ccccc1OCCSc1nnc(-c2cc3ccccc3o2)n1C	0.57	·
108	O=C(O)c1ccc(N2Cc3cc(Cl)ccc3OCC2=O)cc1	0.96	-0.49
109	COc1ccc(C2C3C(C)=NN=C3CC(C)(O)C2C(C)=O)cc1 (stereo unspecified)	·	-0.32
110	Cc1nn(CC(=O)NCCC2=CCCCC2)c(=O)c2cc3ccccc3n12	-2.7	-0.26
111	CC(C)(C)C1=CC(O)n2c(nc3ccccc32)S1 (stereo unspecified)	-0.23	-0.62
112	CSc1nn(Cc2ccc(F)cc2)c(N)c1S(=O)(=O)c1ccc(Cl)cc1	-0.22	·
113	O=C(CCc1ccc(-c2ccc(F)cc2)o1)NC1CCCC1	-0.09	-1.7
114	Cn1c(Cn2c(=O)sc3ccccc32)nnc1SCc1cccc(Cl)c1	·	-0.6
115	O=C(CSc1nc2ccccc2nc1N1CCOCC1)Nc1ccccc1	-1.8	-0.45
116	CS/C(N)=N/N=C/c1c(F)cccc1Cl	·	-0.53
117	CCOC(=O)Cn1cc(C(=O)C2CC2)c2ccccc21	2.5	0.2

Three compounds from above, sorted by formula weight, rising.
#	Compound	HIV TAR-Tat	CDC25B CDK2 inh
26	O=C(N/N=C/c1ccccc1)c1ccc2nonc2c1	·	-2.2
108	O=C(O)c1ccc(N2Cc3cc(Cl)ccc3OCC2=O)cc1	0.96	-0.49
65	O=C(CSCc1cc(=O)c2ccccc2[nH]1)Nc1ccc(Cl)cc1	0.66	·

Compounds were not picked by outcome. About 0.89% of those tested had a hit in this group.
